Cruzain Triton: inhibitors of Trypanosoma cruzi cruzain with detergent; Potency, µM, for the others: max response, negative = inhibition, usual class: inhibitors; hit rate 0.43% among 200,000; P25779; purified cruzain, Z-FR-AMC fluorescence, 0.01% Triton; active = well fitted curve in the direction sought with a large enough effect; inconclusive = small, poorly fitted or top-dose-only effect, or another doubt; inactive = no such curve, though single readings can be large; an effect the other way counts as inactive or inconclusive;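 note: plate controls were neutral wells for no effect and buffer without enzyme for full effect; nearly all actives have a fitted effect of over 40% in size; top concentration of the series not given in the record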
Target sequence (P25779 123-467 limits assumed): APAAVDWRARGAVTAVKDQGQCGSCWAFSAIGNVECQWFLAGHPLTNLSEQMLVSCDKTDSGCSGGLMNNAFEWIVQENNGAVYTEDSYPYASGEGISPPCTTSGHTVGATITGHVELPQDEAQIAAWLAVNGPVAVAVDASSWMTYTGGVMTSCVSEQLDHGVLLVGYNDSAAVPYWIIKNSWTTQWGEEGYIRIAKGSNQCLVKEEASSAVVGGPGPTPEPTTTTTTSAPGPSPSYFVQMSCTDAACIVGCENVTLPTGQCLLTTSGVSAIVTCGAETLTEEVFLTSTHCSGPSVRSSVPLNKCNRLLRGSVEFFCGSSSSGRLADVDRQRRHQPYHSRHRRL
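Purified cruzain (1.5 nM final) was preincubated with compounds for 15 min at room temperature in 100 mM sodium acetate pH 5.5, 5 mM DTT, 0.01% Triton X-100. Reaction started with 2 uM Z-FR-AMC; AMC fluorescence change over 60 s gave activity.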
LASV entry inh: blocks Lassa virus binding to or entry into cells; Lassa virus pseudotype entry inhibition, cell reporter; control for the full effect not named in the record; Potency, µM (titrated, usually from 37.9 µM), for the others: at the top dose activity change, negative = inhibition, hits mostly inhibitors; hit rate 1.2% among 300,000; active means well fitted inhibition curve with a large enough effect; inconclusive means small, poorly fitted or top-dose-only effect, or effect the other way; inactive means flat fitted curve, though single readings scatter; tested in HEK293 cells; note: % is set by controls: 0 for no effect and ±100 for the full control effect; nearly all actives have a fitted effect of over 50% in size; luciferase read-out
Cruzain noTriton: inhibitors of Trypanosoma cruzi cruzain without detergent; Potency, µM, inactives show max response, negative = inhibition, hits mostly inhibitors; purified cruzain, Z-FR-AMC fluorescence, no detergent; P25779; AID 1476; hit rate 2.3% among 200,000; active = well fitted curve in the direction sought with a large enough effect; inconclusive = small, poorly fitted or top-dose-only effect, or another doubt; inactive = no such curve, though single readings can be large; an effect the other way counts as inactive or inconclusive;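 note: plate controls were enzyme without inhibitor for no effect and buffer without enzyme for full effect; nearly all actives have a fitted effect of over 40% in size; top concentration of the series not given in the record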
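Detergent-free condition (0.00005% Triton X-100) in acetate buffer pH 5.5 with DTT. 1.5 nM enzyme and compound were pre-mixed 15 min, then 2 uM Z-FR-AMC substrate added; reaction progress from fluorescence change between first and third reads (60 s).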
SARS PLpro yeast: blocks SARS-CoV papain-like protease in a yeast assay. AID 485353. S. cerevisiae expressing SARS-CoV PLpro, growth rescue; control for the full effect not named in the record. hit rate 0.19% among 330,000. Potency, µM (doses to about 32.9 µM), for inactives: at the highest dose activity, positive = growth rescue; note: 0% is about no effect; nearly all actives have a fitted effect of over 55% in size; growth read by luminescence after 48 h
RE007 growth inh: less growth of the S. pombe RE007 Vpr strain; S. pombe RE007 Vpr strain, BacTiter-Glo ATP luminescence, 24 h; control for the full effect not named in the record; Potency, µM (titrated, usually from 92.2 µM), without a hit: at the top dose activity change, negative = less growth; hit rate 0.21% among 360,000; AID 651644; active = well fitted falling curve with a large enough effect; inconclusive = small, poorly fitted or top-dose-only effect; inactive = no such curve, though single readings can be large or run the other way;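 note: % is set by controls: 0 for no effect and ±100 for the full control effect; nearly all actives have a fitted effect of over 50% in size; the assay follows cell death caused by Vpr and the record does not say whether a fall means rescue or toxicity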
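Fission yeast RE007 carrying one integrated HIV-1 vpr copy, seeded at OD 0.01 in PMG+AL medium with 23 nL pinned compound. Grown 24 h at 30 degrees; viability read by BacTiter-Glo luminescence after 5 min.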
StopGo reporter: lowers the luciferase signal of an FMDV 2A StopGo reporter. human cells with a luciferase reporter of 2A StopGo recoding; control for the full effect not named in the record. Potency, µM (doses to about 57.9 µM), for inactives: at the highest dose signal change, negative = less light. hit rate 1.2% among 410,000. AID 1159524; active = well fitted falling curve with a large enough effect; inconclusive = small, poorly fitted or top-dose-only effect; inactive = no such curve, though single readings can be large or run the other way; tested in HEK293T cells; note: % is set by controls: 0 for no effect and ±100 for the full control effect; nearly all actives have a fitted effect of over 45% in size; luciferase light after 4 h
MARV entry inh: blocks Marburg virus binding to or entry into cells; Marburg virus pseudotyped entry inhibition, cell reporter; control for the full effect not named in the record; about a third of the inactives were read at about 46 µM; AID 540276; Potency, µM (titrated, usually from 37.8 µM), inactives show at the highest dose activity change, negative = inhibition, usual class: inhibitors; hit rate 1.8% among 300,000; active = well fitted inhibition curve with a large enough effect; inconclusive = small, poorly fitted or top-dose-only effect, or effect the other way; inactive = flat fitted curve, though single readings scatter; tested in HEK293 cells; about a fifth of its hits are not listed in these tables; note: % is set by controls: 0 for no effect and ±100 for the full control effect; luciferase read-out
NS1 function inh: influenza NS1 inhibition; S. cerevisiae slowed by influenza A NS1, growth recovery by OD600; Potency, µM (doses to about 46.1 µM), for inactives: at the highest dose activity, positive = more growth; hit rate 0.4% among 270,000; AID 2326; note: actives are rising curves; nearly all actives have a fitted effect of over 50% in size
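Growth recovery, yeast-based: influenza A NS1 expressed in S. cerevisiae causes slow growth, and suppressors are detected by OD600. The parent strain without NS1 is used as positive control.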
The depositor's hits bear a star; ? = inconclusive; . = no result given; & = joins results of further samples; [ ] = remark or other dose. Unless noted, calls come from the whole dose curve; as a rule, active means well fitted rising curve with a large enough effect; inconclusive means small, poorly fitted or top-dose-only effect; inactive means no such curve, though single readings can be large or run the other way. Potency is the fitted concentration of half-maximal effect. Outcome played no part in choosing rows; any-hit rate near 4.7%.

SMILES	Cruzain Triton	LASV entry inh	Cruzain noTriton	SARS PLpro yeast	RE007 growth inh	StopGo reporter	MARV entry inh	NS1 function inh
O=C(O)c1ccc2c(=O)n3c(nc2c1)/C(=C/c1ccc(C(F)(F)F)cc1)CC3	.	.	.	0.7%	-4.5%	-15.5%	.	2.7%
CCCCCCC1CCC(C(=O)Nn2c(C)nc3ccccc3c2=O)CC1 (stereo unspecified)	3.0%	-0.7%	?	-18.3%	8.9%	.	4.4%	-6.0%
COc1ccc2cc(CN(CCO)C(=O)c3ccc(Br)cc3)c(=O)[nH]c2c1	-1.2%	-29.9%	-1.7%	-0.1%	-12.0%	?	-2.7%	-7.0%
COc1ccc(-c2csc3ncnc(N4CCN(S(=O)(=O)c5ccc(C(C)=O)cc5)CC4)c23)cc1	.	?	.	-1.2%	10.2%	?	-17.3%	.
CCOc1ccccc1OCCOCCN1CCN(Cc2ccccc2)CC1	.	-18.8%	.	-0.6%	-6.1%	-7.8%	?	-1.9%
Cc1cccc(C)c1Nc1c(-c2ccccn2)nc2ccc(Cl)cn12	-0.6%	-1.0%[46.1 µM]	9.8%	.	.	-17.4%	7.8%[46.1 µM]	.
CCN(CC)C(=O)COc1ccc2oc(C)c(C(=O)OC)c2c1	1.6%	14.6%	-4.4%	-9.1%	-0.6%	7.2%	10.4%	6.2%
O=C(NC1CCCCCC1)c1ccc(CN2CCOCC2)cc1	6.0%	-4.8%	-7.7%	-1.3%	1.1%	33.8%[activator]	?	-11.5%
CCc1cc(=O)oc2cc(C)cc(OCC(=O)NCc3ccncc3)c12	.	.	.	-6.4%	0.0%	2.6%	.	2.2%
COc1ccc(CNC(=O)C(=O)NCC(c2ccco2)N2CCOCC2)cc1 (stereo unspecified)	-2.5%	1.7%	8.3%	-31.1%	17.0%	-15.8%	?	-2.6%
O=C(COc1ncnc2cc([N+](=O)[O-])ccc12)NCCc1ccc(Cl)cc1	.	4.4%	.	-0.3%	-9.3%	-13.8%	2.0%[46.1 µM]	8.4%
CCOc1ccc(C(CC(=O)O)N2Cc3ccccc3C2=O)cc1OC (stereo unspecified)	-0.9%	-1.9%[46.1 µM]	3.1%	.	.	-14.9%	5.9%[46.1 µM]	.
Fc1ccc(Nc2ccnc(C(F)(F)F)c2)cc1	.	.	.	6.0%	?	-21.7%	.	1.1%
COc1ccc(CC(=O)Nc2ccc(S(=O)(=O)NCC3CCCO3)cc2)cc1 (stereo unspecified)	-7.1%	-7.4%	-5.2%	-2.9%	11.0%	.	-18.1%	-11.5%
COc1ccc(Oc2nc(-c3cccnc3)nc3ccccc23)cc1	.	-12.6%	.	-0.5%	-6.6%	-20.5%	-23.3%[46.1 µM]	-3.4%
Nc1ccc(C(=O)NCc2ccccc2)cc1	.	.	.	-1.7%	-3.8%	13.9%	.	-1.7%
CC(=O)Nc1cc(C(=O)N2CCCC2)ccc1Sc1ccc(Cl)cc1	-4.4%	-23.0%	18.3%	8.8%	12.6%	-6.6%	-15.9%	-4.2%
O=C(c1ccco1)C12CN3CN(CN(C3)C1)C2	-1.9%	-9.1%	7.6%	3.5%	-15.1%	-23.4%	0.4%	8.9%
O=C(CN1C(=O)COc2ccccc21)N(Cc1cccnc1)Cc1cccc(F)c1	-2.0%	0.9%	-10.1%	-3.8%	0.6%	-16.6%	11.9%	1.1%
Cc1ccc(C)c(N2CCN(C(=O)c3cc4ccccc4oc3=O)CC2)c1	-7.2%	.	-2.5%	-0.4%	-5.3%	0.0%	.	-9.6%
CC(=O)NCc1ccc(S(=O)(=O)NC(C)CCc2ccccc2)cc1 (stereo unspecified)	.	-12.2%[46.1 µM]	.	0.6%	?	3.4%	0.1%[46.1 µM]	7.9%
Cc1ccc2c(c1)-c1ccccc1S(=O)(=O)N2	-4.6%	10.3%	0.6%	-7.0%	-13.8%	12.2%	-3.9%	-107.2%
Cc1cccc(-n2nnc3c(=O)n(CC(=O)Nc4cc(C)on4)cnc32)c1	.	-13.4%	.	1.3%	13.4%	1.3%	-5.5%[46.1 µM]	0.6%
NC(=O)c1ccccc1OCC(=O)N1CCCC1c1ccc2c(c1)OCCCO2 (stereo unspecified)	.	-4.4%	.	3.1%	-0.7%	-12.7%	-0.3%	.
O=C(Nc1ccc(S(=O)(=O)N2CCCC2)cc1)c1ccccc1	.	1.5%	.	-0.5%	2.0%	-26.5%	?	.
O=C(Nc1ccc(-n2nncc2-c2ccco2)cc1)c1cc2ccccc2oc1=O	-0.6%	-6.3%	-7.9%	-0.1%	6.5%	16.3%	9.1%	5.01µM*
CCOC(=O)c1c(C)[nH]c(C(=O)COC(=O)CCSc2ccccc2)c1C	25.1µM*	12.8%	-16.4%	-6.3%	10.0%	39.3%[activator]	?	-8.3%
COC(=O)N(C)c1nc2ccccc2s1	0.6%	28.2%	1.9%	-3.1%	?	49.9%[activator]	9.3%	-17.2%
O=C(Nc1cccnc1)C1CCN(S(=O)(=O)c2ccc(Cl)cc2)CC1	.	18.3%	.	0.8%	-0.7%	-6.2%	-1.5%	8.4%
CC1CCN(S(=O)(=O)N2CCC(C(=O)NCCC3=CCCCC3)CC2)CC1	.	.	.	0.5%	0.4%	-25.3%	.	5.1%
O=C(Nc1ccc(C(=O)N2CCN(c3ccccc3)CC2)cc1)C1=CSCCO1	.	7.9%[46.1 µM]	.	-11.8%	2.3%	12.7%	0.6%[46.1 µM]	-6.5%
CN1C(=O)CSc2ccc(C(=O)O)cc21	6.4%	.	-4.1%	-6.9%	-4.8%	-10.5%	.	-0.9%
OC(c1ccccn1)(c1ccccn1)c1ccccn1	13.8%	?	0.1%	?	5.5%	-4.5%	?	7.7%
CN1CCN(C(c2ccc(C(F)(F)F)cc2)c2ccc3cccnc3c2O)CC1 (stereo unspecified)	.	7.94µM*	.	-15.0%	-8.8%	-28.2%	?	-156.9%
COc1ccc(OC)c(-n2c(SCC(=O)N3CCc4ccccc43)nc3c(c2=O)SCC3)c1	-13.3%	.	?	20.7%	5.8%	-23.5%	.	-59.8%
COCC(C)NC(=O)Cn1c(SCc2ccccc2)nc2ccccc21 (stereo unspecified)	.	?	.	22.3%	0.5%	63.4%[activator]	5.3%&5.3%[46.1 µM]	11.2%
COc1ccc(C(=O)NC(=S)NC(C)C)cc1Br	-5.5%	0.5%	1.5%	18.0%	-11.8%	15.8%	-5.3%	-6.6%
COC(=O)/C=C/c1c(C)nc(NCc2ccccc2)nc1Cl	.	-4.8%	.	1.3%	18.9%	-1.6%	-18.3%	-5.7%
COc1ccc(/C=C/C(=O)OCC(=O)c2ccc3c(c2)NC(=O)CO3)c(OC)c1	.	.	.	0.1%	-0.4%	-22.2%	.	2.3%
Cn1c(CC(=O)Nc2ccccc2)nnc1SCC(=O)NC1CCCC1	.	12.8%[46.1 µM]	.	0.1%	0.1%	-13.4%	2.5%[46.1 µM]	-5.3%

Structural class, those above with a Cl atom (five)
SMILES	Cruzain Triton	LASV entry inh	Cruzain noTriton	SARS PLpro yeast	RE007 growth inh	StopGo reporter	MARV entry inh	NS1 function inh
Cc1cccc(C)c1Nc1c(-c2ccccn2)nc2ccc(Cl)cn12	-0.6%	-1.0%[46.1 µM]	9.8%	.	.	-17.4%	7.8%[46.1 µM]	.
O=C(COc1ncnc2cc([N+](=O)[O-])ccc12)NCCc1ccc(Cl)cc1	.	4.4%	.	-0.3%	-9.3%	-13.8%	2.0%[46.1 µM]	8.4%
CC(=O)Nc1cc(C(=O)N2CCCC2)ccc1Sc1ccc(Cl)cc1	-4.4%	-23.0%	18.3%	8.8%	12.6%	-6.6%	-15.9%	-4.2%
O=C(Nc1cccnc1)C1CCN(S(=O)(=O)c2ccc(Cl)cc2)CC1	.	18.3%	.	0.8%	-0.7%	-6.2%	-1.5%	8.4%
COC(=O)/C=C/c1c(C)nc(NCc2ccccc2)nc1Cl	.	-4.8%	.	1.3%	18.9%	-1.6%	-18.3%	-5.7%

Following part.
SMILES	Cruzain Triton	LASV entry inh	Cruzain noTriton	SARS PLpro yeast	RE007 growth inh	StopGo reporter	MARV entry inh	NS1 function inh
CN(Cc1ccccc1)C(=O)COC(=O)c1ccc2c(c1)OCO2	2.0%	8.0%	4.4%	-6.9%	-4.8%	39.8%[activator]	12.8%	-0.7%
CCN1CCN(CC(=O)Nc2ccc(C)c(Br)c2)CC1	.	.	.	0.6%	-10.3%	-11.5%	.	1.7%
COc1cc(C(=O)N/C(=C/c2ccc(F)cc2)C(=O)NC(C(=O)O)c2ccccc2)cc(OC)c1OC (stereo unspecified)	.	.	.	-0.2%	-6.4%	-2.7%	.	3.5%
O=C(CN1C(=O)c2ccccc2S1(=O)=O)Nc1ccccc1C(=O)NCc1ccco1	-13.1%	0.4%	-10.4%	-11.9%	3.2%	-8.3%	3.4%	6.7%
COC(=O)c1c(NC(=O)CN2CCC3(O)CCCCC3C2c2cc(OC)ccc2OC)sc(C)c1C (stereo unspecified)	-6.7%	7.94µM*	-13.8%	-36.3%	15.2%	?	14.6µM*	23.8%
CCOC(=O)C1CCN(S(=O)(=O)c2c(C)[nH]c(C)c2C(=O)N2CCCC2)CC1	.	.	.	-1.2%	0.0%	0.5%	.	-8.6%
Cn1cc(CC(=O)N2CCN(c3ccc(Cl)cc3)CC2)c2ccccc21	-12.1%	?	3.6%	-5.6%	-5.7%	-15.8%	?	-49.9%
CCCOc1ccc(/C=C/c2c([N+](=O)[O-])c(=O)n(C)c(=O)n2C)cc1	.	.	.	-4.9%	-4.8%	?	.	8.1%
CCn1c(=O)n(CC)c2cc(S(N)(=O)=O)c(C)cc21	-0.8%	9.6%	-2.7%	3.4%	-5.6%	.	-5.1%	1.2%
CC(C)(C)n1cnc2cc(NS(=O)(=O)c3ccccc3)ccc21	-0.6%	-12.6%	-1.1%	-5.4%	-22.6%	-22.7%	-9.4%	0.5%
CCn1cc(C(=O)N[C@H](C(=O)NC(C)(C)CO)C(C)C)c(=O)c2cc3c(cc21)OCO3	.	.	.	0.2%	-4.9%	-18.3%	.	0.8%

Screens (PubChem)
